# Assay outcomes (PubChem BioAssay)
# BJeLR viability = MLPCN primary cell-based screen for lethality selective to Ras in HRASV12 cells. inhibition, % (concentration not given with the values). BJeLR (HRASV12) viability, CellTiter-Glo ATP luminescence, 48 h; reference of the scale not given here. 0.17% of 300,000 active. AID 1554, 2009;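 active = replicate mean above 50%; inconclusive = above 50% but judged a plate artefact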;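 note: 50 nL library stock added to about 25 µL; numbers are from one replicate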
# Autofluor counter = flagged as autofluorescent in microsphere protease counterscreen | compound autofluorescence counterscreen, microsphere flow cytometry; hits give high values | fluorescence intensity (no concentration beside the values) | 3.1% of 360,000 active;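 active = at least 3 SD above the mean of all compounds, about 16000 in these data; inconclusive = too few beads counted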;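 note: 100 nL of 1 mM stock went into each well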
# PrP 5UTR inh = inhibition of PrP 5' UTR reporter expression; cell-based PrP 5' UTR mRNA reporter, plate reader; inhibition, % (no concentration beside the values); 0.35% of 340,000 active; AID 488862, 2010;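 active = every replicate at 50% or more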;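 note: 0 = median of the neutral control wells; tested in H4 reporter cells; numbers are from one replicate; inactives centre near -14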
# Sa RN4220 lethal = growth inhibition of S. aureus RN4220, primary screen, OD600. inhibition, % (concentration not given with the values). 0.33% of 330,000 active. AID 1259311, 2017. 16 h;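 active = z-score of -3 or lower and OD600 up to 0.18 on both plates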;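 note: plate controls were untreated cells for no effect and reference antibiotic for full effect; stock transfer was 100 nL into about 80 µL; one replicate is shown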
# Sa ugtP lethal = growth inhibition of ugtP-null S. aureus, primary screen, RN4220 ugtP deletion, OD600; growth inhibition, % (no concentration beside the values); 0.54% of 330,000 active; 16 h; some inactives read as strong as hits; AID 1259309, 2017;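 active = z-score under -3 and OD600 up to 0.15 on both plates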;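 note: plate controls were untreated wells for no effect and antibiotic for full effect; wells of about 80 µL received 100 nL stock; the first replicate is given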
# Mtb hypoxia inh = PubChem AID 1159583; 0.1% of 300,000 active; fluorescence inhibition, % (concentration not given with the values); M. tuberculosis hypoxia-regulated fluorescent reporter, fluorescence;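 active = 35 to 45% if threefold the growth effect, above 45% if 1.5-fold the growth effect; inactive = the rest, general growth blockers included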;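 note: wells of about 50 µL received 100 nL stock; 0% = vehicle wells and 100% = reference inhibitor wells; whole bacteria with a GFP reporter of the hypoxia response; strong numbers were not always called active; many hits fall short of the cut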
# Mtb hypoxia inh growth = further read-out of Mtb hypoxia inh, marked with its call; growth inhibition, %; measured here: M. tuberculosis growth (absorbance);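 0% = vehicle and 100% = reference antibiotic; read after six days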
# The depositor's hits bear a star; ? = inconclusive; nt = no result given. This is a random part of the collection; any-hit rate near 4%.
# Below each SMILES: BJeLR viability	Autofluor counter	PrP 5UTR inh	Sa RN4220 lethal	Sa ugtP lethal	Mtb hypoxia inh	Mtb hypoxia inh growth
CNC(=O)C(=O)NCC1OCCCN1S(=O)(=O)c1ccc(F)cc1C (configuration not stated)
 : 0	4422	-17	-4.1	-5	12	-28
Cc1cc(C(=O)NNC(=O)c2cccc(N(C)C)c2)c(C)o1
 : -10	6124	-31	2.8	2	3	6
CS(=O)(=O)c1ccc(-c2nnn(CC(N)=O)n2)cc1
 : -14	4214	-18	8.8	4	-7	-1
S=C(NCc1ccncc1)Nc1ccc(Cl)cc1Cl
 : 22	2318	-5	3.1	8	7	-4
COc1cc(/C=C2\SC(=Nc3ccccc3)N(CCc3c[nH]c4ccccc34)C2=O)ccc1OC(C)C(=O)O (configuration not stated)
 : -25	2613	0	51	49	5	1
COc1cccc2[nH]c3c(N4CCCC(C)C4)ncnc3c12 (configuration not stated)
 : 3	10105	-38	4.9	-9	2	6
O=C(O)/C=C\C(=O)Nc1ccccc1F
 : -8	6667	-11	7.1	1	-11	-7
Cc1c2c(nc3nc4ccccc4n13)CCCC2=O
 : 1	nt	nt	1.2	0	2	4
Cc1csc(SCCN2C(=O)c3ccccc3C2=O)n1
 : -2	5116	-41	6.6	-4	4	7
Cn1c(SCc2ccc(C#N)cc2)nnc1-c1ccncc1
 : -4	3497	-15	4.4	10	5	-7
CN(C)C(=O)c1ccc(NC(=O)CSc2nc3ccccc3[nH]2)cc1
 : 1	3483	-27	5.5	9	18	-3
CCOc1ccc2c(c1)c1nnc(SCC(=O)N3CCC(C)CC3)nc1n2C
 : 6	9172	-19	4.5	-12	6	7
CN=C1CN(O)C(c2ccccc2)c2cc(Cl)ccc2N1 (configuration not stated)
 : nt	2970	-22	-4.6	-1	nt	nt
CCc1ccc(N2C(=O)C(Cl)=C(Nc3ccc(C(=O)N4CCCC4)cc3)C2=O)cc1
 : nt	3645	-42	7.0	4	4	9
O=C(Nc1cc(S(=O)(=O)N2CCOCC2)ccc1Cl)c1cc2ccccc2o1
 : nt	4096	-4	7.2	-19	19	6
O=C(O)c1ccc(CSc2ncnc3c2cnn3Cc2ccccc2)cc1
 : -2	5269	-13	9.8	9	nt	nt
COc1ccc(-c2ccc3c(c2)S(=O)(=O)c2cccc(C(=O)N4CCN(C5CCCCC5)CC4)c2C3=O)cc1OC
 : nt	5597	-9	10	-8	-9	11
CN(C)C=NC(=O)c1cc(C(=O)c2ccc(Cl)cc2Cl)c[nH]1
 : 0	4767	-7	1.7	-6	1	8
O=C(c1cnn(-c2ccccc2)c1)c1cc(F)ccc1O
 : -1	4389	-64	8.9	7	13	9
O=C(CNS(=O)(=O)c1ccc(F)cc1)N1CCCC1
 : -11	2961	nt	3.0	4	8	-5
NC(=O)COc1c(-c2ccco2)oc2ccccc2c1=O
 : 19	3118	-22	5.8	1	4	1
COc1ccccc1NC(=O)N(CCN1CCOCC1)Cc1cc2cc(C)cc(C)c2[nH]c1=O
 : -4	4322	-11	3.0	9	7	6
CCOc1ccc(-c2n[nH]c(C)c2-c2ccccn2)c(O)c1
 : 1	4408	-9	4.8	12	3	8
CCS(=O)(=O)N1CCN(c2ccc([N+](=O)[O-])c(NCc3ccccc3)c2)CC1
 : -5	2098	2	1.5	-6	nt	nt
COc1cccc(NC(=O)CCN2C(=O)c3cccc([N+](=O)[O-])c3C2=O)c1
 : -5	3759	-28	-3.9	8	5	-1
CCCCN(C(=O)CSc1ncnc2sccc12)c1c(N)n(Cc2ccccc2)c(=O)[nH]c1=O
 : nt	4029	-12	-1.6	1	21	4
O=S(=O)(NCc1ccco1)c1ccc(Cl)nc1
 : 3	1979	-13	0.5	-6	-13	2
Cc1cc2cc(CCNC(=O)c3cccc([N+](=O)[O-])c3)c(=O)[nH]c2cc1C
 : -8	2727	-13	nt	nt	nt	nt
N#CCCn1cc(/C=N/N=C2\NC(=O)C(CC(=O)O)S2)c(-c2ccc(F)cc2)n1 (configuration not stated)
 : 7	3365	5	nt	nt	nt	nt
COc1ccccc1CNC(=O)[C@@H](NC(=O)C1CCN(C(=O)[C@@H]2CCCN2)CC1)C(C)C
 : 2	4196	-50	0.4	6	nt	nt

# Some of these compounds in order of SMILES length, low to high.
# Below each SMILES: BJeLR viability	Autofluor counter	PrP 5UTR inh	Sa RN4220 lethal	Sa ugtP lethal	Mtb hypoxia inh	Mtb hypoxia inh growth
CN=C1CN(O)C(c2ccccc2)c2cc(Cl)ccc2N1 (configuration not stated)
 : nt	2970	-22	-4.6	-1	nt	nt
CNC(=O)C(=O)NCC1OCCCN1S(=O)(=O)c1ccc(F)cc1C (configuration not stated)
 : 0	4422	-17	-4.1	-5	12	-28
CN(C)C(=O)c1ccc(NC(=O)CSc2nc3ccccc3[nH]2)cc1
 : 1	3483	-27	5.5	9	18	-3

# The main list resumes with the four entries that preceded the break.
# Below each SMILES: BJeLR viability	Autofluor counter	PrP 5UTR inh	Sa RN4220 lethal	Sa ugtP lethal	Mtb hypoxia inh	Mtb hypoxia inh growth
O=S(=O)(NCc1ccco1)c1ccc(Cl)nc1
 : 3	1979	-13	0.5	-6	-13	2
Cc1cc2cc(CCNC(=O)c3cccc([N+](=O)[O-])c3)c(=O)[nH]c2cc1C
 : -8	2727	-13	nt	nt	nt	nt
N#CCCn1cc(/C=N/N=C2\NC(=O)C(CC(=O)O)S2)c(-c2ccc(F)cc2)n1 (configuration not stated)
 : 7	3365	5	nt	nt	nt	nt
COc1ccccc1CNC(=O)[C@@H](NC(=O)C1CCN(C(=O)[C@@H]2CCCN2)CC1)C(C)C
 : 2	4196	-50	0.4	6	nt	nt
Cc1cc(Nc2c(C#N)c(N)nn2C)ccc1F
 : -1	1931	-17	-0.7	-2	1	-21
CCN(C(=O)CSc1nnc(C)n1-c1ccc(C)cc1)c1c(N)n(Cc2ccccc2)c(=O)[nH]c1=O
 : nt	3510	-4	1.6	5	8	9
O=C(NCc1ccco1)c1noc2c1CCCC2
 : -9	11017	-40	4.3	1	16	4
Cc1c(C)c2cc(Cl)c(OC(C)C(=O)NCCN3CCOCC3)cc2oc1=O (configuration not stated)
 : -3	5946	-10	1.5	6	7	6
CC(=O)N1CCc2cc(S(=O)(=O)CCC(=O)NCc3cccs3)ccc21
 : 5	3509	-12	-0.5	1	nt	nt
CC(NC(=O)CSc1ccc(S(=O)(=O)N2CCOCC2)cn1)c1ccc(Cl)cc1Cl (configuration not stated)
 : nt	3648	-16	-0.9	-6	1	9
Cc1ccc(C(=O)Oc2ccc(-c3nccc(-c4ccccn4)n3)cc2)cc1
 : -2	2427	-41	-3.5	-17	nt	nt
COc1ccc(C(=O)N(Cc2sccc2C)C2CCS(=O)(=O)C2)cc1 (configuration not stated)
 : 3	6235	-40	-1.3	-1	0	-9
Cc1cccc(NC(=O)CCNC(=O)c2ccccc2)c1
 : -2	3814	-9	2.3	2	4	6
CC(C)(C)NC(=O)c1nn(Cc2ccccc2)c(=O)c2ccccc12
 : 15	4446	-12	6.1	1	-6	9
CCn1ncc(N(C)N)c(Cl)c1=O
 : -6	4134	-21	6.3	-3	2	0
COc1cc(C(=O)Oc2ccccc2)ccc1OCc1c(C)noc1C
 : -7	4421	-21	2.4	-4	6	1
COc1ccc(-c2nc(C#N)c(N3CCC(C(N)=O)CC3)o2)cc1OC
 : 1	?	-22	0.5	1	11	12
Cc1cc(=O)oc2cc(OCC(=O)NCCCN3CCOCC3)ccc12
 : -3	5023	-17	-2.4	2	nt	nt
CN(Cc1ccccc1C#N)S(=O)(=O)c1cccs1
 : 13	3829	-5	-0.3	6	4	10
COc1ccc(S(=O)(=O)N2CCC(C(=O)Nc3cccc(C(C)=O)c3)CC2)cc1
 : 4	3694	-3	6.0	9	nt	nt
CSc1ccc(C(=O)C2CCCN(C(=O)c3ccc4c(c3)no[n+]4[O-])C2)cc1 (configuration not stated)
 : -3	4540	-12	2.2	9	nt	nt
Cc1ccc(-n2c(C)cc(C=NNC(N)=S)c2C)cc1
 : nt	nt	nt	-0.7	-7	nt	nt
O=C(CC1SC(=NCC2CCCO2)NC1=O)Nc1cc([N+](=O)[O-])ccc1Cl (configuration not stated)
 : -17	4317	-13	17	-66	13	11
Cc1ccccc1C(OCCN(C(C)C)C(C)C)c1ccccc1 (configuration not stated)
 : 10	2016	-2	2.5	3	5	3
CC(C)[C@H](NC(=O)C1CCN(S(=O)(=O)c2ccc(F)cc2)CC1)C(=O)N1CCCC1
 : 6	5867	-4	1.8	4	3	-2
O=C(OCc1ccco1)c1cccnc1
 : -12	2452	-12	1.3	3	13	9
CCCn1c(N)c(C(=O)CN(C)CC(=O)Nc2ccccc2CC)c(=O)[nH]c1=O
 : nt	3956	-13	5.7	2	15	6
CCCc1cc(=O)c2c(O)ccc(OC)c2o1
 : 4	5466	-18	3.5	3	11	12
COc1ccc(-c2noc(CN(C)C(=O)c3ccc4c(c3)OCO4)n2)cc1
 : 6	6291	-10	2.7	8	7	2
N#C/C(=C/c1cccc(C(F)(F)F)c1)c1nc(CCN2C(=O)c3ccccc3C2=O)cs1
 : 4	6068	-12	3.7	-2	-18	-4
CN(C)/C=C(/C(=O)c1ccc(Cl)c(Cl)c1)c1nnnn1-c1ccccc1
 : -3	11521	-81	4.4	-4	-1	12
N=C1C(c2ccccc2)=C(O)CN1c1ccc2c(c1)OCO2
 : 1	7802	-18	6.6	-2	14	5
COCCn1c(N)c(C(=O)OCc2ccccc2)c2nc3ccccc3nc21
 : 1	20725*	-19	-3.0	-5	1	4
Cc1nnc(C)n1N=Cc1cccs1
 : nt	nt	nt	6.6	4	5	6
O=c1cc(-c2ccc(O)cc2)oc2cc(O)c([C@@H]3O[C@H](CO)[C@@H](O)[C@H](O)[C@H]3O)c(O)c12
 : nt	5309	-45	1.4	1	nt	nt
COc1ccc(NC(=O)CC(c2ccc(F)cc2)c2ccc(OC(C)C)cc2)cc1 (configuration not stated)
 : -12	2449	-32	4.9	19	3	1
O=C(CCCOc1ccc(Cl)cc1)Nc1ccc(N2CCOCC2)cc1
 : 6	1989	-12	4.6	8	6	2
CN(CC(=O)O/N=C(\N)c1cccc([N+](=O)[O-])c1)S(=O)(=O)c1ccccc1
 : -16	17118*	-9	2.7	-2	3	13
Cc1noc(C)c1NC(=O)Nc1ccc2c(c1)C(=O)N(C(C)CO)CC(C)C(CN(C)C(=O)NC(C)C)O2 (configuration not stated)
 : nt	nt	nt	4.1	0	8	6
COc1ccc(C(=O)ON=C2C=C(C)C(=O)C(C)=C2)cc1
 : 2	2145	-21	2.8	0	9	10
CCCCOCP(=O)(CCCC)COCCCC
 : -2	2568	-10	-0.6	0	nt	nt
CCc1cc(OCCCSc2nc(C)cc(=O)[nH]2)ccc1Cl
 : 6	24555*	-20	6.8	-14	-3	1
O=C(CN1C(=O)c2ccccc2S1(=O)=O)NCCSC1CCCCC1
 : 4	2820	-1	-6.0	11	nt	nt
Nc1c(Cl)ncnc1NN=Cc1cccnc1
 : nt	nt	nt	1.5	7	3	-2
CC(=O)Nc1cccc(C(C)=NNC(=O)c2cccc(S(=O)(=O)N3CCOCC3)c2)c1
 : nt	nt	nt	-0.3	2	2	-5
COc1ccc2c(c1)C(c1ccc([N+](=O)[O-])cc1)=NNC(c1ccco1)=N2
 : 0	5755	-14	0.1	8	6	8
O=C(COC(=O)c1ccccc1NC(=O)c1ccccc1)c1ccc([N+](=O)[O-])cc1
 : -5	3005	-37	6.6	-20	6	4
CCOc1cc(C(=O)N2CCOCC2)ccc1OCc1ccccc1
 : 1	2635	-30	2.1	6	nt	nt
CC(=O)Nc1ccc(S(=O)(=O)N(Cc2ccccc2)c2ccccc2F)cc1
 : -14	5288	-15	13	6	-1	-5
c1ccc2cc(CN3CCOCC3)ccc2c1
 : -12	7672	-12	1.3	1	-2	-2
CC(=O)N(C)N1c2ccccc2CCc2ccccc21
 : 12	4141	-21	2.3	-1	1	-2
O=C(Cc1nc2ccccc2[nH]1)c1ccc(Cl)cc1
 : -2	3589	-32	-7.3	14	1	4
COc1ccc(-c2cnnc(N/N=C/c3ccc(O)c(O)c3)n2)cc1
 : 3	2338	-21	nt	nt	nt	nt
Cc1cc(C=Nn2cnnc2)c(C)n1-c1cccc(C(=O)O)c1
 : nt	nt	nt	2.1	-2	-4	-5
COc1ccc(OC)c(S(=O)(=O)Nc2ccccc2C(=O)N2CCCCC2)c1
 : nt	6160	-2	0.4	0	-11	-9
